Source: PubChem BioAssay (National Center for Advancing Translational Sciences (NCATS))
HEK293 tox = qHTS of GLP-1 Receptor Inverse Agonists: Cytotox Screen | HEK293 cAMP-luciferase reporter cells, luminescence, 24 h | Potency, µM (titrated, usually from 38.3 µM), without a hit: top-dose activity change, negative = inhibition, actives largely listed as inhibitors | 410,000 compounds, 0.13% hits | AID 624418, 2012;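 note: loss of luciferase light is scored as toxicity; potency is the fitted concentration of half-maximal effect; % is set by controls: 0 for no effect and ±100 for the full control effect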
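MLSMR compounds, 24 hr on cells at 37 deg C/5% CO2; luminescence after luciferase reagent (12 min RT). Inhibition counted as the undesired cytotoxic outcome.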
PLK1 PBD block = qHTS for Inhibitors of PLK1-PDB (polo-like kinase 1 - polo-box domain): Primary Screen. Plk1 PBD binding of FITC phosphopeptide, fluorescence polarization. Potency, µM, inactives show max response, negative = inhibition, actives largely listed as inhibitors. 360,000 compounds, 2.8% hits. AID 720504, 2013; note: potency is the fitted concentration of half-maximal effect; series mostly up to about 57 µM; % is set by controls: 0 for no effect and ±100 for the full control effect; nearly all actives have a fitted effect of over 65% in size
Target sequence (P53350 whole entry, looked up, the tested form may be a part): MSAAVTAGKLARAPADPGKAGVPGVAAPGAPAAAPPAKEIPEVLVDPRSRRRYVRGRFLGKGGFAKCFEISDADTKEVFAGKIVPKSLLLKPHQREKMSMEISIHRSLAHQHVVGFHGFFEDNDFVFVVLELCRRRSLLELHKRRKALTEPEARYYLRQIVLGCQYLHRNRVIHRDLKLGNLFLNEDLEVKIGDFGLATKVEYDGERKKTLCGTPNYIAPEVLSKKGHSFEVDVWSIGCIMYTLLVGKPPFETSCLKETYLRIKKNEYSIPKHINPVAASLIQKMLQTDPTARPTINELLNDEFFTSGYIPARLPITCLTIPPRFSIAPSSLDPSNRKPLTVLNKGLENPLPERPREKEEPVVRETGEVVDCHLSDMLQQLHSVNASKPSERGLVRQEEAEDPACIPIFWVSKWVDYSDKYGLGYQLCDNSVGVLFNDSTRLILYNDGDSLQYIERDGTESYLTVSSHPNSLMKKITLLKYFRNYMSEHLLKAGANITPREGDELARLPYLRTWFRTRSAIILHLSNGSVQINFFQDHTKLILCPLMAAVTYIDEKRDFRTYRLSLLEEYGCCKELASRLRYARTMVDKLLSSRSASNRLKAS
GLP1R ag = qHTS of GLP-1 Receptor Agonists. Potency, µM (top dose mostly 45.6 µM), for the others: top-dose activation, most hits filed as activators. 380,000 compounds, 0.007% hits. Glucagon-like peptide 1 receptor (Homo sapiens), P43220. HEK293 GLP-1R CRE-luciferase, luminescence, 4-6 h; cells express a hypersensitive GLP-1R form; note: potency is the fitted concentration of half-maximal effect; % of control where 0% means no effect
Target sequence (P43220 whole entry, looked up): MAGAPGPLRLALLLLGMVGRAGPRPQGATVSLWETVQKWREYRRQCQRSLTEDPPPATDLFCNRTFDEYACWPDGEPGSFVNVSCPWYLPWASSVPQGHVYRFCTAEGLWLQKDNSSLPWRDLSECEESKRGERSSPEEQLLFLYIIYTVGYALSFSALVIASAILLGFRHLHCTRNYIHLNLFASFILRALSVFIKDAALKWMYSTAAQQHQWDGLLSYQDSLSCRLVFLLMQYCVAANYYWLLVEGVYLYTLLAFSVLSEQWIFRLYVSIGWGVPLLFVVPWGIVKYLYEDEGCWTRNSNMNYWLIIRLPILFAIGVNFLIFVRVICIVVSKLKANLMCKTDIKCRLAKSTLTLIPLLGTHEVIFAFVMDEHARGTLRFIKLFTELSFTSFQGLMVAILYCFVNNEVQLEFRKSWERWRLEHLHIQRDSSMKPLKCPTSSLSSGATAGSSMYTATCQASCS
IL2 activator = qHTS of IL-2 Activators. activation, % (series mostly up to about 46 µM). 360,000 compounds, 0.065% hits. IL-2 activation reporter assay, cell-based qHTS; stimulated with anti-CD3/CD4/CD28 beads; in transgenic mouse T cells; in the data active = activation above about 50%; inconclusive = mostly about 30% to 49%; note: 0% is about no effect
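Readout: EGFP and DsRed signals by fluorescent plate cytometry. Unstimulated transgenic mouse T cells received compound 60 min before antibody-bead stimulation, then incubated 18 h at 37 degrees C.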
GLP-1R inv ag = qHTS of GLP-1 Receptor Inverse Agonists (Inhibition Mode); HEK293 GLP-1R CRE-luciferase, luminescence, 24 h; GLP-1R form is constitutively active; Potency, µM (titrated, usually from 38.3 µM), without a hit: at the highest dose activity change, negative = inhibition, hits mostly inhibitors; 410,000 compounds, 1.6% hits; note: potency is the fitted concentration of half-maximal effect; % is set by controls: 0 for no effect and ±100 for the full control effect; nearly all actives have a fitted effect of over 55% in size
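Stable HEK293 clone (constitutively active GLP-1R + cAMP-response luciferase); 200 cells/uL plated, 12 h pre-culture, compound 24 hr, 37 deg C/5% CO2; detection reagent 12 min RT; luminescence.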
PTHR1 ag = qHTS for PTHR1 Agonists: Primary Screen; Parathyroid hormone/parathyroid hormone-related peptide receptor (Homo sapiens), Q03431; HEK293 GP2 PTHR1 cells, GloSensor cAMP luminescence, 1 h; Potency, µM (titrated, usually from 115 µM), inactives show at the top dose activation, actives largely listed as activators; 410,000 compounds, 0.075% hits; AID 743266, 2014; note: potency is the fitted concentration of half-maximal effect; nearly all actives have a fitted effect of over 55% in size; some results filed as inactive show a strong effect at the top dose; inactives centre near -15; many of its hits are not listed in these tables
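HEK-293-derived GP2 cells expressing PTHR1 and a GloSensor cAMP reporter, 3,000/well, plated overnight, given luciferin plus IBMX (each 0.5 mM as added) for 1 h at 37 °C, then compound for 1 h at 37 °C. Luminescence was read after 15 min at room temperature.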
EPAC1 antag = qHTS for Antagonist of cAMP-regulated guanine nucleotide exchange factor 3 (EPAC1): primary screen | Rap guanine nucleotide exchange factor 3 (Homo sapiens), O95398 | AID 720709, 2013 | 360,000 compounds, 0.14% hits | EPAC1 GEF assay, Rap1b-BODIPY-GDP exchange fluorescence | Potency, µM (series often up to 115 µM), inactives show at the highest dose activity change, negative = inhibition, most hits filed as inhibitors;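 note: potency is the fitted concentration of half-maximal effect; plate controls were vehicle for no effect and positive control for full effect; nearly all actives have a fitted effect of over 50% in size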
EPAC1 ag = qHTS for Agonist of cAMP-regulated guanine nucleotide exchange factor 3 (EPAC1): primary screen; 360,000 compounds, 0.073% hits; Rap guanine nucleotide exchange factor 3 (Homo sapiens), O95398; EPAC1 agonist qHTS, biochemical assay; response scale: 100% = response to 6.5 mM cAMP; Potency, µM (highest dose often 154 µM), for the others: top-dose activation, most hits filed as activators; note: potency is the fitted concentration of half-maximal effect; nearly all actives have a fitted effect of over 60% in size
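EPAC1 100 nM, Rap1B–BODIPY-GDP 250 nM, unlabeled GDP 50 uM; compound titration; 5 min RT; kinetic read ex480/em540 at 5-min intervals ×30 min; data normalized to 6.5 mM cAMP agonist control.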
* marks the source's active call; other numbers are inactive results; i = inactive; u = inconclusive; x = not tested or not shown; [ ] = another dose, or the depositor's remark. Unless noted, calls come from the whole dose curve; as a rule, active = well fitted curve in the direction sought with a large enough effect; inconclusive = small, poorly fitted or top-dose-only effect, or another doubt; inactive = no such curve, though single readings can be large; an effect the other way counts as inactive or inconclusive. Some of the compounds tested, so the mix of outcomes need not match the whole.

Results follow in this order: HEK293 tox, PLK1 PBD block, GLP1R ag, IL2 activator, GLP-1R inv ag, PTHR1 ag, EPAC1 antag, EPAC1 ag
CC1(C)Cc2ccccc2C(C(=O)c2ccccc2)=N1
 : 6%, 0%, 0%, -3.0, u, i, -13%, -3%
CC(=O)Nc1ccc(NCc2cccs2)cc1
 : 1%, 0%, 2%, 1.8, 1%, -14%, -5%, 10%
COc1ccc(Nc2cc(Cl)ccc2C(=O)O)cn1
 : 2%, -13%, -1%, 0.5, -1%, -24%, -23%, -5%
CCOC(=O)C1CCCN(c2nc3ccccc3nc2C(C#N)C(=O)NCc2ccccc2)C1 (stereo not drawn)
 : 77%[activator], -14%, -9%, -0.7, u, i, 8%, 0%
O=C(NCc1cccnc1)c1cc2nc(-c3cccs3)cc(C(F)(F)Cl)n2n1
 : 53%, -1%, 6%, 0.7, 74%[activator], i, -13%, -8%
O=C(CCc1nc2sc3c(c2c(=O)[nH]1)CCCC3)NCC(=O)Nc1ccccc1Br
 : -6%, -13%, -10%, -0.2, 3%, i, -16%, 0%
O=C(/C=C/c1ccc(Cl)cc1)N1CCOCC1
 : -10%, -3%, 9%, 0.0, 21%, -11%, 8%, 6%
CCCOc1ccc(/C(O)=C2/C(=O)C(=O)N(CCN(C)C)C2c2ccc(OC)c(OC)c2)cc1 (stereo not drawn)
 : 7%, -10%, -4%, -1.6, 2%, i, 0%, 5%
CCNC(=S)N1CCC(NC(=O)c2ccco2)CC1
 : 13%, -2%, 2%, 2.2, 5%, i, 1%, 6%
O=C1Nc2ccccc2-n2nnnc2C1N1CCN(CCN2CCOCC2)CC1 (stereo not drawn)
 : -3%, -1%, x, -0.6, 13%, -9%, 2%, 7%
Cc1cc(NC(=O)c2noc3c2CCCC3)nn1Cc1ccc(Cl)cc1
 : -37%, -12%, 5%, -2.2, u, -90%[inhibitor], -13%, 14%
CCC(=O)N1CCC1(C)C(=O)Nc1nccs1 (stereo not drawn)
 : -27%, -6%, -6%, -0.1, 13%, 9%, -14%, -17%
CCOC(=O)c1ccc(NC(=O)CSc2nnc(-c3cccs3)n2C)cc1
 : -10%, -8%, 2%, 0.4, -10%, i, -7%, -2%
COc1ccc(NC(=O)CS(=O)CC(=O)Nc2cccnc2)cc1 (stereo not drawn)
 : -14%, 1%, -1%, -0.3, 3%, -24%, 5%, -2%
CCc1c(C)sc(NC(=O)C2CCCCC2C(=O)O)c1C(N)=O (stereo not drawn)
 : -9%, u, -5%, 0.3, 7%, i, 10%, 4%
Cc1ccc([N+](=O)[O-])cc1NC(=O)Cc1cccs1
 : 2%, 0%, 6%, -2.1, 22%, 0%, u, 13%
O=C(NC1=NCCS1)C1CC(=O)N(c2ccc(F)cc2)C1 (stereo not drawn)
 : -18%, -17%, -10%, 0.6, 6%, i, 11%, -14%
O=C(CSc1nnc(Nc2ccccc2F)s1)NCc1ccco1
 : -11%, -29%, -6%, 1.7, -16%, i, u, -4%
CC(C)[C@H](Nc1ccc(S(=O)(=O)N2CCOCC2)cc1[N+](=O)[O-])C(=O)OCC(=O)N(C(C)C)C(C)C
 : u, -5%, 7%, -0.4, u, -1%, -4%, -1%
Cc1ccc(NC(=O)c2noc3c2CCC3)cc1C
 : -5%, u, 3%, -2.3, u, -24%, -21%, 8%

Part of the list above, with bars between the fields.
SMILES | HEK293 tox | PLK1 PBD block | GLP1R ag | IL2 activator | GLP-1R inv ag | PTHR1 ag | EPAC1 antag | EPAC1 ag
CCOC(=O)c1ccc(NC(=O)CSc2nnc(-c3cccs3)n2C)cc1 | -10% | -8% | 2% | 0.4 | -10% | i | -7% | -2%
COc1ccc(NC(=O)CS(=O)CC(=O)Nc2cccnc2)cc1 (stereo not drawn) | -14% | 1% | -1% | -0.3 | 3% | -24% | 5% | -2%
CCc1c(C)sc(NC(=O)C2CCCCC2C(=O)O)c1C(N)=O (stereo not drawn) | -9% | u | -5% | 0.3 | 7% | i | 10% | 4%
Cc1ccc([N+](=O)[O-])cc1NC(=O)Cc1cccs1 | 2% | 0% | 6% | -2.1 | 22% | 0% | u | 13%
O=C(NC1=NCCS1)C1CC(=O)N(c2ccc(F)cc2)C1 (stereo not drawn) | -18% | -17% | -10% | 0.6 | 6% | i | 11% | -14%
O=C(CSc1nnc(Nc2ccccc2F)s1)NCc1ccco1 | -11% | -29% | -6% | 1.7 | -16% | i | u | -4%
CC(C)[C@H](Nc1ccc(S(=O)(=O)N2CCOCC2)cc1[N+](=O)[O-])C(=O)OCC(=O)N(C(C)C)C(C)C | u | -5% | 7% | -0.4 | u | -1% | -4% | -1%
Cc1ccc(NC(=O)c2noc3c2CCC3)cc1C | -5% | u | 3% | -2.3 | u | -24% | -21% | 8%

Going on with the list.
Results follow in this order: HEK293 tox, PLK1 PBD block, GLP1R ag, IL2 activator, GLP-1R inv ag, PTHR1 ag, EPAC1 antag, EPAC1 ag
CN(CC(=O)Nc1c(Cl)cccc1Cl)C(=O)CCc1nc2sc3c(c2c(=O)[nH]1)CCCC3
 : 17%, -11%, -7%, -1.0, -11%, -27%, -13%, -6%
Cc1ccnc(SCC(=O)Nc2sccc2C#N)n1
 : -11%, -13%, 2%, -1.5, 65%[activator], -2%, -8%, 8%
CC1=C(C(=O)OCc2ccccc2)C(c2cccnc2)n2nnnc2N1 (stereo not drawn)
 : u, -21%, -3%, 0.6, 9%, -7%[57.5 µM], -14%, 4%
N#Cc1c(NC(=O)CSc2ncn(-c3ccccc3)n2)sc2c1CCCC2
 : -5%, u, -6%, -1.9, -1%, -3%[57.5 µM], 12%, 12%
Cn1c(=NC(=O)CSCC(=O)N2CCOCC2)sc2ccccc21
 : 14%, -4%, 4%, 0.9, 9%, i, 14%, 11%
Cc1noc(C)c1CSc1ccccc1C(=O)N(C)CC(=O)Nc1cccc(F)c1
 : -10%, -13%, 13%, -2.9, -6%, -16%, -10%, 0%
N#Cc1c(SCC(=O)Nc2ccc(Cl)cc2Cl)sc2c(O)cc(=O)[nH]c12
 : 4%, u, -2%, -1.4, -21%, -4%, -2%, -2%
CCOC(=O)c1c(NC(=O)Cn2cnc([N+](=O)[O-])n2)sc2c1CCC(C)C2 (stereo not drawn)
 : 10%, -6%, 0%, -3.4, 1%, -1%[57.5 µM], -26%, 7%
CN(C)c1ccc(-c2ccc3oc(-c4ccsc4)cc(=O)c3c2)cn1
 : 4%, -19%, 20%, 7.5, 2%, -4%, -6%, -12%
COc1ccc(CC2(CO)CCN(C(C)COc3ccccc3)CC2)cc1 (stereo not drawn)
 : 5%, -8%, 5%, -0.1, u, i, -1%, -6%
CCOC(=O)c1cc(-c2ccccc2)sc1NC(=O)CSc1nncs1
 : -5%, -7%, 18%, -1.0, 2%, -5%, -16%, 8%
COc1ccc(S(=O)(=O)N2CCN(CC(=O)NC(C)c3cccs3)CC2)cc1 (stereo not drawn)
 : -3%, 1%, -1%, -1.7, 1%, -7%, 16%, -4%
CCN(CC(=O)NCc1cccs1)c1ccc(S(=O)(=O)N2CCCC2)cn1
 : -3%, -5%, 4%, 0.6, -4%, i, 7%, 6%
CCOc1ccc(NC(=O)CN(C)C(=O)c2cccnc2Sc2ccc(C)cc2C)cc1OCC
 : u, 2%, 3%, -2.2, 12%, -12%, -1%, -4%
O=C1c2nc3cc(-c4ccco4)[nH]n3c(=O)c2CN1Cc1ccccc1
 : -3%, -17%, -3%, 0.7, 13%, -5%, 5%, -7%
Cc1[nH]c(=O)[nH]c(=O)c1S(=O)(=O)Nc1cccc(C(F)(F)F)c1
 : 5%, 1%, -1%, -0.7, 5%, -35%[inhibitor], -8%, -6%
CC(=O)c1cc(C#N)c(N2CCCCC2)nc1C
 : -7%, -19%, 22%, -0.4, -18%, i, -12%, 11%
COc1ccc(CC2(CO)CCN(Cc3cc4ccccc4o3)CC2)cc1
 : -3%, -10%, 25%, -1.4, 10µM*, -26%, 4%, -8%
Cc1nnc(SCc2nc3sc4c(c3c(=O)[nH]2)CCCC4)[nH]c1=O
 : 14%[7.66 µM], 0%, -2%, 1.1, 13%[7.66 µM], -22%, 5%, 1%
CCN(c1ccc(NC(=O)CSc2ccc3c(c2)OCCO3)cc1)C(C)C
 : -4%, -9%, 0%, -2.9, u, -39%[inhibitor], -6%, 10%
O=C(CSc1nncc2ccccc12)Nc1ccc(F)cc1
 : -5%, -19%, 9%, 0.6, 1%, -12%, -7%, 2%
Cc1cc(C)c(S(=O)(=O)Nc2cccc(/C=C/C(=O)O)c2)c(C)c1
 : -1%, 1%, -1%, 2.9, 13%, -5%, -1%, 2%
CCOC(=O)c1cc(-c2ccccc2)sc1NC(=O)C(C)OC(=O)c1ccncc1 (stereo not drawn)
 : -5%, 5%, -4%, 3.8, 19%, -8%, 0%, -9%
CC(C)c1ccc(NC(=O)COc2ccccc2)cc1
 : 8%, -2%, 12%, -0.2, -11%, -41%[inhibitor], -7%, 0%
O=C1C=C(CCc2ccccc2)CCC1
 : -4%, -4%, -2%, -3.3, -10%, -35%[inhibitor], 4%, -12%
N#Cc1c(SCC(=O)Nc2ccc(C(F)(F)F)cc2)sc2c(O)cc(=O)[nH]c12
 : -4%, -18%, 0%, -3.5, 16%, -2%, 1%, 0%
CSCCC(NC(=O)c1ccco1)C(=O)NC1CCC(C)CC1 (stereo not drawn)
 : 3%, 0%, 8%, 0.3, 11%, -7%, -19%, 1%
CCc1cc(C(=O)c2ccc(OC)cc2)c(NC(=O)CCC(=O)O)s1
 : 4%, -2%, -1%, 1.1, 4%, -59%[inhibitor], 8%, -5%
CC1CCN(CC(=O)Nc2nc(-c3ccccc3)cs2)CC1
 : -10%, -2%, -8%, 2.4, 5.6µM*, i, 1%, 7%
CCN(CC)S(=O)(=O)c1ccc(OC)c(NC(=O)Cc2cccs2)c1
 : -6%, -29%, 2%, -2.8, -21%, -33%[inhibitor], u, -9%
CC(C)c1ccc(NC(=O)CCCC(=O)NCCc2ccccc2)cc1
 : -3%, -8%, 1%, -0.5, -45%, -33%, u, 0%
Cc1ccc(S(=O)(=O)CCSc2cccc(C(=O)Nc3ccccc3C(=O)O)c2)cc1
 : 15%, 1.7µM*, 0%, 0.4, -20%, i, -9%, -3%
